# Source: PubChem (Johns Hopkins Ion Channel Center)
# KCNQ2 pot: enhances the rat KCNQ2 potassium channel; AID 2239; 0.54% of 310,000 active; B-score at 10 µM; CHO-K1 KCNQ2, FluxOR thallium flux fluorescence; stronger effect = higher value;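 active = fluorescence ratio B-score at least 3 SD of library B-scores, with initial fluorescence B-score within 3 SD, cut at about 5.3 in these data; same plate scores as AID 2156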;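 also: B-score of peak minus minimum over baseline fluorescence ratio after K+ and Tl+ stimulus; positive B-score means potentiation of KCNQ2 with more thallium influx and brighter signal; only the inactives scoring about 0 or higher are listed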
# Target sequence (O88943 whole entry, looked up): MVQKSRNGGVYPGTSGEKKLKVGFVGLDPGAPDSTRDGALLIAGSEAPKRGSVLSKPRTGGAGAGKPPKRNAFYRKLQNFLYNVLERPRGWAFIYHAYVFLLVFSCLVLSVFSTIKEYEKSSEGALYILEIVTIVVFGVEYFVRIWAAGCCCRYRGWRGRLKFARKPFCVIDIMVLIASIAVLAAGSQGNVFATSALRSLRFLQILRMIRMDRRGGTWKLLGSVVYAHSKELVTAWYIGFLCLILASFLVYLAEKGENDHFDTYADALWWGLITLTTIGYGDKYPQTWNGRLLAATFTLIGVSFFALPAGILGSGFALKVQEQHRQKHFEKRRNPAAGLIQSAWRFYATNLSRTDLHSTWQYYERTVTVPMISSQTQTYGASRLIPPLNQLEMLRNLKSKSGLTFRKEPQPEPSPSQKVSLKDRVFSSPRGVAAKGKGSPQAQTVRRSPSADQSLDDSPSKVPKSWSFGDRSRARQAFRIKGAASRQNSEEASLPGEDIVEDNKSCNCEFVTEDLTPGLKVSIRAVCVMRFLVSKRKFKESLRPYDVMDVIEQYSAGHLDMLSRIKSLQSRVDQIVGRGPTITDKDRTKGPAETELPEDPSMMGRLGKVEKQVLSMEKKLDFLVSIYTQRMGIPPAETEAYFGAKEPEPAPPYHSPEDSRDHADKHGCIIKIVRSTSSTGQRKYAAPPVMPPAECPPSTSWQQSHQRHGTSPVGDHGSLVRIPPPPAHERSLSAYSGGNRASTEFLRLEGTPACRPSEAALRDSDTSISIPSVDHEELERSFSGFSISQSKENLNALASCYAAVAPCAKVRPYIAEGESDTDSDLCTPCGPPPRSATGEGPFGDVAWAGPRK
# KCNQ2 pot baseline: further read-out of KCNQ2 pot, marked with its call; B-score; compound at 10 µM; measured here: initial fluorescence intensity artifact check;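 brightness before thallium and not channel activity; 0 = typical well and far values either way flag optical interference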
# * hit, by the source's call. This is a subset (hit frequency here may not be typical).
SMILES,KCNQ2 pot,KCNQ2 pot baseline
CCOC(=O)c1cc2sccc2n1CC(=O)c1ccc2c(c1)OCCO2,0.01,-1.1
S=C(NCC1CC1)N/N=C/c1ccccc1Cl,0.45,0.82
NC(=O)CNC(=O)C1CCN(S(=O)(=O)c2ccc(-n3cnnn3)cc2)CC1,0.95,0.97
CCOC(=O)c1c(C)[nH]c(C)c1C(=O)COC(=O)c1cc(OC)cc(OC)c1,0.04,-2.5
CC(=O)NC1C(=O)N(C)c2ccc(Br)cc21 (stereo not given),0.04,-0.43
Nc1ccc(C(=O)O)cc1[N+](=O)[O-],0.28,-0.1
CC1CCN(Cc2nnnn2CCCC(=O)N(C)C2CCOC2)CC1 (stereo not given),0.45,-0.83
Cc1cc(C)cc(N=Cc2c(O)c3ccccc3oc2=O)c1,0.21,-0.55
CC(=O)c1cc(CC=C(C)C)c(O)cc1O,0.13,-1.9
CC(=O)NCCOC(=O)c1nn(Cc2ccccc2)c(=O)c2ccccc12,0.2,1.1
COc1ccccc1N1CCN(S(=O)(=O)c2cc3[nH]c(=O)c(=O)[nH]c3cc2C)CC1,1.8,-0.44
CCOc1ccccc1C1C(C(=O)OC)=C(N)OC2=C1C(=O)CCC2 (stereo not given),1.9,0.06
O=C(C[n+]1cccc(CNC(=O)c2ccc(OC(F)F)cc2)c1)Nc1ccccc1Cl,0.16,-0.22
CCC(CC)NC(=O)COC(=O)c1ccc(OCc2ccc(C(C)=O)cc2OC)c(OC)c1,0.8,-0.85
O=C(CP(=O)(c1ccccc1)c1ccccc1)N/N=C/c1cc(Br)cc(Br)c1O,0.74,-1.4
Cc1cc(NC(=O)c2cccs2)ncc1NC(=O)C(C)(C)C,0.59,0.09
O=C(O)CCC(=O)N1CCC(n2nnc3cc(C(F)(F)F)ccc32)CC1,1.2,0.54
CC(Cc1cnccn1)NC(=O)c1cc(COc2ccc(F)cc2F)on1 (stereo not given),0.45,-1.4
CCc1c(C)nc(SCC(=O)N2C(C)CCCC2C)[nH]c1=O (stereo not given),0.11,-0.07
O=C(CCCC(=O)OCC(=O)c1cccs1)Nc1ccc(F)cc1,2.3,-0.95
CCOC(=O)c1ccc(NC(=O)c2ccc(NC(=O)c3ccccc3)cc2)cc1,1.2,0.68
CC(C)CCN1CC(C(=O)NCc2ccc(F)cc2)CC1=O (stereo not given),0.03,0.4
O=C(Cc1ccccc1)NC(=S)Nc1ccc(N2CCCCC2)cc1,0.61,1
COc1cc(/C=C2/C(=N)N3N=C(CC(=O)N4CCOCC4)SC3=NC2=O)ccc1OCc1ccccc1,1.2,-0.01
Cc1cc(=O)[nH]c(S/C=C/c2ccccc2)n1,2.7,-2
# (list continues)
SMILES,KCNQ2 pot,KCNQ2 pot baseline
CCCC1=C(C(=O)OCC)C(/C=C/c2ccccc2)n2ncnc2N1 (stereo not given),1.1,1.6
CC(=O)N1CCN(c2nc(N)c(C#N)c(CC#N)c2C#N)CC1,0.28,-0.84
O=C(COC(=O)Cc1c(Cl)cccc1Cl)NCC1CCCO1 (stereo not given),2.1,1.7
Cc1ccc(C2C(C#N)=C(N)OC3=C2C(=O)CC(C)(C)C3)s1 (stereo not given),3.9,-0.01
CC(=O)OC1COC(N2CCc3ccccc32)C(OC(C)=O)C1OC(C)=O (stereo not given),1,-0.72
COc1cc(OC)cc(C(=O)NCc2n[nH]c(=S)n2-c2ccccc2)c1,0.34,-0.33
CC(=O)NCCC(=O)Nc1cc(F)ccc1C,2.2,0.68
Cc1cc(C)cc(NC(=O)CSc2nnc(-c3ccncc3)o2)c1,1.8,0.35
O=c1c(Cc2c(F)cccc2Cl)c(O)ccn1C1CC1,0.39,-0.13
CCOC(=O)N1CCN(C(=O)CN(Cc2ccccc2)S(C)(=O)=O)CC1,1.5,-1.3
CN(CCC#N)C(=O)COC(=O)c1ccccc1OCc1ccccc1Cl,2,0.01
CN(C)S(=O)(=O)c1ccc(N2CCCC2)c(C(=O)N2CCN(S(=O)(=O)c3ccccc3F)CC2)c1,0.5,0.11
COc1ccc(/C=C/CN2CCC(n3nccc3NC(=O)C3CCCC3)CC2)cc1,0.47,0.76
Cc1nnc(SCC(=O)c2ccc(S(=O)(=O)N3CCOCC3)cc2)n1-c1ccccc1,0.01,-1.6
COc1cc(/C=N/N2CCN(C3c4ccccc4-c4ccccc43)CC2)cc(OC)c1O,0.86,-0.21
COC(=O)C1C(c2ccccc2)C=CC(c2ccccc2)C1C(=O)O (stereo not given),0.55,-2.1
Cc1ccc(C(=O)N2CCCC2)cc1S(=O)(=O)N1CCOCC1,0.24,0.32
Cc1ccc(NC(=O)C2CCCO2)cc1[N+](=O)[O-] (stereo not given),0.03,1.3
CC(C)[C@H](NC(=O)N1CC(=O)Nc2ccccc21)C(=O)N1CCC[C@H]1C(=O)O,0.6,0.17
COc1ccc(NC(=O)CSc2ccc(-c3sc(C)nc3C)nn2)cc1OC,0.29,0.1
CCOc1cc(N2CCOCC2)c(OCC)cc1NC(=O)COC(=O)CCOc1ccc(C(C)(C)C)cc1,11*,-0.05*
COc1ccc(NC(=O)CN(C)CC(=O)Nc2ccccc2SC)cc1,0.42,0.05
CCC(C)N1CC(C(=O)O)CC1=O (stereo not given),1.8,-0.01
Cc1ccccc1OCCC(=O)OCC(=O)NC1CCS(=O)(=O)C1 (stereo not given),1.3,0.33
O=[N+]([O-])c1ccc2c(c1)C(N1CCOCC1)/C(=C/C1(O)CCCCC1)O2 (stereo not given),0.89,-0.66
# More structures
SMILES,KCNQ2 pot,KCNQ2 pot baseline
O=C(O)c1cccc2c1/C(=N/Nc1ccc([N+](=O)[O-])cc1[N+](=O)[O-])c1ccccc1-2,1,-0.93
C=CCSc1nnc2c(n1)OC(c1ccco1)Nc1ccccc1-2 (stereo not given),0.7,-2
CCCCN(C)Cc1c(C)[nH]c2ccc(OCC)cc2c1=O,0.61,-0.23
CC(C)CCNC(=O)c1cc2c(=O)n3ccccc3nc2s1,0.01,-0.02
CC1CCN(CCC(=O)Nc2ccc(Br)cc2)CC1,1.2,0.39
COc1cc(CN2CCC(n3nccc3NC(=O)c3ccccc3OC)CC2)ccc1F,2.2,-4.9
O=C(Cc1cccs1)N1CCN(c2ccc(F)cc2)CC1,1.2,0.86
O=C(Oc1ccc2c(-c3ccccc3)cc(=O)oc2c1)C1CCCCC1,0.35,-0.15
COc1ccc(S(=O)(=O)NNC(=O)Nc2ccc(F)cc2F)c(OC)c1,1.1,-0.01
CN1C/C(=C/c2ccncc2)C(=O)/C(=C/c2ccncc2)C1,4.4,1.8
CCOC(=O)c1ccccc1NC(=O)Cn1c(-c2nonc2N)nc2ccccc21,0.95,-0.13
Cc1cc(OC(C)C(=O)NCCCN2CCOCC2)c2c(C)cc(=O)oc2c1 (stereo not given),2.4,-1
CCCCC(CC)CNC(=O)/C=C/c1ccc(F)cc1 (stereo not given),0.72,-0.12
COC(=O)[C@H](C)NC(=O)Nc1cccc(C)c1,0.85,2.4
COC(=O)c1c(NC(=O)CCNCc2ccco2)sc2c1CCC2,0.39,-0.01
CC(CNc1ccccc1O)C(=O)O (stereo not given),0.31,0.27
CCC(C(=O)Nc1c2c(nn1C(C)(C)C)CS(=O)(=O)C2)c1ccccc1 (stereo not given),0.25,-0.53
CCC(=O)N1CCc2cc(S(=O)(=O)CCC(=O)Nc3cccc(C)n3)ccc21,1.2,-2.6
C=CCN1C(=O)[C@]2(c3ccccc31)C1CCCC=C1C(C#N)=C(N)C2(C#N)C#N (stereo not given in full),0.02,-0.38
CCCCC(C(=O)O)C(C)CC(=O)Nc1nncs1 (stereo not given),0.48,0.29
Cc1nnc(SCC(=O)NNC(=O)c2ccc(Br)cc2)n1C,1,-0.09
CCCCOCCCNC(=O)c1cccc(OC)c1,0.22,1.6
CC(=O)NC1=NN(C(C)=O)C(C)(c2ccccc2)S1 (stereo not given),0.86,-0.9
O=C(O)c1ccc(N2C(=O)CC(Cc3ccccc3)C2=O)cc1 (stereo not given),0.56,-0.79
CC(C)c1ccc(NC(=O)C(c2ccccc2)N2CCN(C=O)CC2)cc1 (stereo not given),0.52,-0.05
# Remaining list, next part
SMILES,KCNQ2 pot,KCNQ2 pot baseline
Cc1cc(NC(=O)CCN2C(=O)/C(=C\c3ccccc3Cl)SC2=S)no1,0.01,-0.16
CC(C)=CCCC1(C)C=Cc2c(ccc3c2[nH]c2cc(O)c(C)cc23)O1 (stereo not given),1.9,0.53
CCC1CCCCN1CCCNC(=O)C1CCC(Cn2c(=O)[nH]c3ccccc3c2=O)CC1 (stereo not given),0.07,-0.54
Cc1ccc(NC(=O)CSc2ncc(-c3ccccc3)n2C(=O)c2ccccc2)cc1,0.73,-2.1
CS(=O)(=O)NCCOc1ccc(S(=O)(=O)N2CCCc3ccccc32)cc1,1,0.08
COc1ccccc1N1CCN(S(=O)(=O)c2cccs2)CC1,0.69,0.46
Cc1ccc(-n2c(C)nnc2SCC(=O)Nc2ccccc2)cc1,0.01,-0.48
Cc1ccc(-c2[nH]nc3c2C(c2ccsc2)C(C#N)=C(N)O3)cc1 (stereo not given),0.75,-0.01
Cc1ccc(Cl)cc1NC(=O)CC1NCCNC1=O (stereo not given),0.35,2.7
CCO[C@@H]1OC(C(N)=O)=C[C@H](c2cn(C(C)=O)c3ccccc23)[C@H]1CCCO,1.2,0.1
O=C(CN1C(=O)c2ccccc2C1=O)Nc1ccccc1N1CCOCC1,1.3,-0.36
Cc1cc(N)n(-c2ccccc2)n1,0.64,1.3
COC(CNC(=O)C1CCCN1C(=O)OCc1ccccc1)OC (stereo not given),1.1,-0.9
COc1ccc([C@@H]2[C@@H]3C(=O)N(C(C)(C)C)C(=O)[C@@H]3[C@]3(C)C(=O)N(c4cccc(C)c4)C(=O)N23)cc1,1.6,0.18
COc1ccccc1-c1nc(SCc2ccccn2)n[nH]1,0.67,2.8
CCOC(=O)c1cc(NC(=O)Nc2cc(C)ccn2)c(C)nc1C,0.25,-1.4
CCC(C)NS(=O)(=O)c1ccc(OCC(=O)Nc2ccc(F)cc2F)cc1 (stereo not given),1.1,0.02
COc1cc(NC(=O)c2ccccc2)c(OC)cc1NC(=O)Cc1ccc(Br)cc1,0.21,-0.78
CCCOc1cccc(C(=O)NCCCNC(=O)c2ccccn2)c1,0.16,0.25
O=c1c2ccccc2nc(N/N=C/c2ccccc2)n1O,1.3,-0.78
CC(=O)Nc1cccc(C(=O)OC(C)C(=O)N2CCc3ccccc32)c1 (stereo not given),1.3,0.37
CC(=O)NC(CC(=O)Nc1ccc(S(=O)(=O)N2CCCC2)cc1)c1ccccc1 (stereo not given),0.79,-0.01
Cc1onc(-c2c(F)cccc2Cl)c1C(=O)NNC(=O)C1CCN(Cc2ccccc2)CC1,0.92,-0.91
Brc1ccc(-c2nnc(-c3cccnc3)o2)cc1,0.09,0.25
Cc1c(CCC(=O)NCCCN2CCCC2=O)c(=O)oc2c(C)c(O)ccc12,1.4,-0.09
# The list continues.
SMILES,KCNQ2 pot,KCNQ2 pot baseline
O=C1C2N=NN(CC(=O)N3N=C(c4ccccc4)CC3c3ccc([N+](=O)[O-])cc3)C2C(=O)N1c1ccccc1 (stereo not given),0.49,-0.96
CCn1ccnc1CN(C)Cc1nc(-c2ccc(C(=O)OC)cc2)no1,0.01,-1.6
C/C(Cl)=C/Cn1c(NCCN(C)C)nc2c1c(=O)n(C)c(=O)n2C,0.39,-1.1
COc1ccccc1N1CCN(CC(=O)Nc2c(C)n(C)n(-c3ccccc3)c2=O)CC1,1.2,-1.6
COCCNCCCCOc1c(Cl)cc(C)cc1Br,1.6,0.39
Cc1ccc(S(=O)(=O)NCCC(=O)N2CC(C)OC(C)C2)cc1C (stereo not given),1.5,-0.02
Clc1ccc(-c2nnc(SCc3cn4ccsc4n3)n2CC2CCCO2)cc1 (stereo not given),0.81,-0.5
CC1=C(C(=O)OC(C)C)C(c2ccccc2)NC(=S)N1C (stereo not given),1.1,-0.19
COc1cc(-c2ccc(NC(=O)NC3CC3)c(OC)c2)ccc1NC(=O)NC1CC1,0.53,0.15
Cc1cc(S(=O)(=O)Nc2ccc(C(=O)N3CCN(C(=O)c4ccco4)CC3)cc2)ccc1F,1.3,1.4
FC(F)(F)c1ccc(Cl)c(NC(=S)N/N=C/c2ccccc2C(F)(F)F)c1,3.4,1.2
NC(=O)C1CCCN(C(=O)NC2CCCCC2)C1 (stereo not given),0.05,-0.61

# Looked up one by one from above:
SMILES,KCNQ2 pot,KCNQ2 pot baseline
O=C1C2N=NN(CC(=O)N3N=C(c4ccccc4)CC3c3ccc([N+](=O)[O-])cc3)C2C(=O)N1c1ccccc1 (stereo not given),0.49,-0.96
Cc1cc(S(=O)(=O)Nc2ccc(C(=O)N3CCN(C(=O)c4ccco4)CC3)cc2)ccc1F,1.3,1.4
Cc1ccc(S(=O)(=O)NCCC(=O)N2CC(C)OC(C)C2)cc1C (stereo not given),1.5,-0.02
COCCNCCCCOc1c(Cl)cc(C)cc1Br,1.6,0.39
CCn1ccnc1CN(C)Cc1nc(-c2ccc(C(=O)OC)cc2)no1,0.01,-1.6
CC1=C(C(=O)OC(C)C)C(c2ccccc2)NC(=S)N1C (stereo not given),1.1,-0.19

# Entries above containing a COOH group (nine):
SMILES,KCNQ2 pot,KCNQ2 pot baseline
Nc1ccc(C(=O)O)cc1[N+](=O)[O-],0.28,-0.1
O=C(O)CCC(=O)N1CCC(n2nnc3cc(C(F)(F)F)ccc32)CC1,1.2,0.54
COC(=O)C1C(c2ccccc2)C=CC(c2ccccc2)C1C(=O)O (stereo not given),0.55,-2.1
CC(C)[C@H](NC(=O)N1CC(=O)Nc2ccccc21)C(=O)N1CCC[C@H]1C(=O)O,0.6,0.17
CCC(C)N1CC(C(=O)O)CC1=O (stereo not given),1.8,-0.01
O=C(O)c1cccc2c1/C(=N/Nc1ccc([N+](=O)[O-])cc1[N+](=O)[O-])c1ccccc1-2,1,-0.93
CC(CNc1ccccc1O)C(=O)O (stereo not given),0.31,0.27
CCCCC(C(=O)O)C(C)CC(=O)Nc1nncs1 (stereo not given),0.48,0.29
O=C(O)c1ccc(N2C(=O)CC(Cc3ccccc3)C2=O)cc1 (stereo not given),0.56,-0.79
